# Screens deposited in PubChem by several laboratories.
# RanGTP-Imp inh: disruptors of Ran-importin-beta complex formation – biochemical, FRET, CFP-Ran, YFP-importin-beta, homogeneous, primary screen; 1.1% of 300,000 active; inhibition, % (concentration not given with the values); cell-free CFP-Ran/YFP-importin-beta FRET ratio;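 active = most replicates above 15%; inconclusive = exactly half above 15%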;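 also: 0% = DMSO wells and 100% = Ran loaded with GDP instead of GTP; wells of about 40 µL received 100 nL stock; the first replicate is given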
# UCH37 inh: blocks the human deubiquitinase UCH37. Q9Y5K5. purified proteasome/UCH37, Ub-AMC cleavage fluorescence. inhibition, % (no concentration beside the values). 0.33% of 330,000 active. AID 588478;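 active = mean of two replicates above 20%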;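 also: 0% = compound-free wells with enzyme and 100% = wells lacking proteasome; stock transfer was 100 nL into about 20 µL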
# Target sequence (Q9Y5K5 whole entry, looked up): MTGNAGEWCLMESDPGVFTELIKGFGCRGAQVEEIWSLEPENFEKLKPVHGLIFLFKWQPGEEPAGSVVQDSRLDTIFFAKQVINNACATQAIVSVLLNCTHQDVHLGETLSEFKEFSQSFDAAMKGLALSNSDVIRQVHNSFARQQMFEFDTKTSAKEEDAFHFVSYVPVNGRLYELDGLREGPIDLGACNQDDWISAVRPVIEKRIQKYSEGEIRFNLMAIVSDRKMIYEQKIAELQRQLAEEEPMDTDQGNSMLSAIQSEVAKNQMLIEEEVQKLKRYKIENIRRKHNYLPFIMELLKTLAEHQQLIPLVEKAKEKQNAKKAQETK
#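 Reagent: Ub-AMC substrate; assay system: Proteasome-associated human UCH37 deubiquitinase; controls: no-proteasome and no-compound wells; read-out: % inhibition of Ub-AMC cleavage fluorescence; timing: 30 min preincubation with enzyme, 25 min cleavage at room temperature; signal: AMC fluorescence from Ub-AMC cleavage, excitation 355 nm, emission 460 nm; buffer or medium: Tris-HCl pH 7.4 plus ovalbumin, ATP-MgCl2, DTT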
# LANA-H2A inh: blocks KSHV LANA binding to histone H2A/H2B; cell-free LANA-H2A/H2B peptide, fluorescence polarization; inhibition, % (concentration not given with the values); 0.6% of 320,000 active; in the data active = inhibition mostly above about 10%, no sharp cut-off; inactive = mostly below about 6.7%;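 also: stock transfer was 7.5 nL into about 10 µL; 0% = median of vehicle wells and 100% = median of positive control wells; one replicate is shown; the record names a cut of 25% in any replicate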
# Beta2AR agonist: activates human beta-2 adrenergic receptor causing internalization; 0.43% of 340,000 active; response, % (no concentration beside the values); Am2.2-beta2AR cells, FAP receptor internalization, flow cytometry; reference of the scale not given here; P07550;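 active = response above a set limit, near 3 SD of response in nonfluorescent compounds, cut at about 42% in these data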;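 also: stock transfer was 100 nL into about 11 µL; a reference agonist was the positive control; negative values mostly stem from fluorescent compounds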
# Target sequence (P07550 whole entry, looked up): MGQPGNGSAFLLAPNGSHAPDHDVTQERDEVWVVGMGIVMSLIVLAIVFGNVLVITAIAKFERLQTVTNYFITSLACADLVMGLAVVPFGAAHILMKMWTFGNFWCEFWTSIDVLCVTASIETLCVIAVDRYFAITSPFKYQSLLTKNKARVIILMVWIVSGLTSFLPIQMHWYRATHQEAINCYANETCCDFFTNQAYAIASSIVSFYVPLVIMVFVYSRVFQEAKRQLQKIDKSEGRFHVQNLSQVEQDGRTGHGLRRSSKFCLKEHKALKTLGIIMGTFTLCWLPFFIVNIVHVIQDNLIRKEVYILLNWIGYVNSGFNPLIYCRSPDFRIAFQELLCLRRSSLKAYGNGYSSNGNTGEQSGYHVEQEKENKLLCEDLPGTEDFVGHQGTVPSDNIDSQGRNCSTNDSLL
# Calb FLC: affects C. albicans growth with fluconazole. C. albicans CaCi-2 (fluconazole-resistant clinical isolate) + fluconazole, Alamar Blue growth, 48 h. 0.57% of 300,000 active. growth inhibition, % (concentration not given with the values);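 active = most replicates above 75%; inconclusive = exactly half above 75%; inactive = most below 75%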;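 also: all wells also contain fluconazole at 8 µg/ml as a sub-toxic cotreatment; 0% = median of DMSO wells and 100% = median of geldanamycin control wells; wells of about 8 µL received 7.5 nL stock; the first replicate is given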
# A1 inh: inhibitors of the anti-apoptotic protein A1, read as caspase activation | caspase activation, % (test concentration not listed) | MEF A1-2A-BIM cells, Caspase-Glo 3/7 luminescence, 3 h; percent of clofoctol response, vehicle zero | 0.066% of 330,000 active;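 active = over half of replicate activation scores above 10%, or exactly half above 10 with the replicate mean above 10; inconclusive = replicate mean below 10 yet half the replicates above 10; inactive = over half of replicates below 10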;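 also: wells of about 30 µL received 50 nL stock; many hits fall short of the cut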
# T cruzi inh: T. cruzi replication inhibition | AID 1885 | 1.4% of 300,000 active | inhibition, % (test concentration not listed) | T. cruzi beta-gal in NIH3T3, luminescence, 90 h;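 active = mean inhibition across valid replicates above about 55%, limit read from the data; inconclusive = mean below that limit but half or more replicates reach it; inactive = mean below it, under half of replicates reach it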;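 also: signal also drops with host cell toxicity which is not excluded here; 0% = plate median of DMSO wells and 100% = zero luminescence signal; higher percent means less beta-gal luminescence so fewer parasites; stock transfer was 50 nL into about 50 µL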
# Beta apoptosis: beta cell apoptosis inhibition; INS-1E cytokine-induced death, ATP luminescence, 48 h; percent of positive-control rescue, neutral wells zero; protection from apoptosis, % (test concentration not listed); 0.8% of 300,000 active; AID 435005;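 active = all replicates at 75% or more, or half of them and the mean; inconclusive = half reach 75% but not the mean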;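 also: 0% = cytokine-treated negative control wells and 100% = positive control rescue; higher means more ATP so stronger rescue from cytokine killing; wells of about 40 µL received 100 nL stock; the first replicate is given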
# * hit, by the source's call; ? = inconclusive; . = not tested or not shown.
entry	Structure	RanGTP-Imp inh	UCH37 inh	LANA-H2A inh	Beta2AR agonist
1	CC(=O)Nc1c(C(=O)O)oc2ccccc12	-1.2	2.7	-5.4	3
2	COc1ccc(-n2c(SC(C)C(=O)N3CCOCC3)nc3ccccc3c2=O)cc1 (stereo not given)	-1.6	-0.6	4.2	5
3	COCCN1CC(C(=O)NCc2ccccc2-n2ccnc2C)CCC1=O (stereo not given)	-1.8	5.3	-0.2	-6
4	Cc1cccn2c(=O)c3cc(C#N)c(=NC(=O)c4ccco4)n(Cc4ccco4)c3nc12	120*	.	3.4	3
5	C/C(=N\Nc1nc(N2CCOCC2)nc(N2CCOCC2)n1)c1cccc([N+](=O)[O-])c1	-0.6	.	-1.2	6
6	N=c1c(S(=O)(=O)c2ccc(Br)cc2)cc2c(=O)n3ccccc3nc2n1Cc1ccccc1	0.4	-0.4	7.9	-17
7	COc1ccc(N=C2SC(CC(=O)Nc3ccccc3)C(=O)N2CCc2ccccn2)cc1 (stereo not given)	1.5	-0.6	-3.0	-12
8	O=C(NCc1ccc2c(c1)OCO2)C1CC(=O)N(c2ccc(O)cc2)C1 (stereo not given)	4.3	0.9	-0.3	6
9	CCN(C(=O)COC(=O)c1ccc[nH]c1=O)c1cccc2ccccc12	.	-0.1	3.4	-1
10	O=C(NCc1ccc(Cl)cc1)C1CCCCN1S(=O)(=O)c1ccccc1 (stereo not given)	5.5	2.6	0.3	25
11	COC(=O)C(NS(=O)(=O)c1ccc(NC(C)=O)cc1)C(C)C (stereo not given)	-5.7	-2.2	-2.4	6
12	CCN(CC)S(=O)(=O)c1cccc(C(=O)N/N=C(\C)c2ccc(O)cc2O)c1	1.8	.	-1.6	11
13	O=C(CSc1ccccc1)N1CCC(N2CCC(C(=O)N3CCCC3)CC2)CC1	?	-2.0	-2.0	-1
14	Cc1ccc(C)c(S(=O)(=O)N2CCN(CC(=O)NC(C)c3ccccc3)CC2)c1 (stereo not given)	.	2.1	-3.7	-7
15	CC(NC(=O)CCCN1C(=O)c2ccccc2C1=O)c1ccc2c(c1)CCCC2 (stereo not given)	1.2	-0.6	-0.7	0

entry	Calb FLC	A1 inh	T cruzi inh	Beta apoptosis
1	-15	-0.2	-15	.
2	-2	0.9	4	-4
3	-2	0.9	4	0
4	-2	0.7	0	-5
5	?	0.8	-6	-6
6	7	-0.9	15	2
7	-5	0.2	-8	.
8	15	-0.6	-4	.
9	.	-0.4	.	0
10	13	-1.8	6	2
11	6	0.4	-1	-4
12	-12	-1.0	64*	.
13	-8	-0.1	11	-7
14	.	0.3	.	2
15	3	-0.3	12	-4

# Copied from the list:
# A1 inh with entry 15 = -0.3
# Beta2AR agonist with entry 9 = -1

# Further entries:
entry	Structure	RanGTP-Imp inh	UCH37 inh	LANA-H2A inh	Beta2AR agonist
16	Cc1cccc(NC(=O)CSCC(=O)N(C)CC(=O)Nc2cccc(F)c2)c1	-3.2	-1.0	-0.9	13
17	S=C(Nc1ccc(Cl)cc1)N1CCN(C2CCCCC2)CC1	4.2	-0.5	0.4	-3
18	COc1ccccc1C(=O)Nc1ccnn1C1CCN(C/C=C/c2ccccc2)CC1	2.8	0.9	2.8	0
19	CCN1C(=O)c2ccccc2S(=O)(=O)c2ccc(C(=O)N3CCOCC3)cc21	-2.4	-3.1	2.2	4
20	CCn1c(SCC(=O)Nc2nncs2)nnc1-c1ccco1	4.0	4.0	2.8	-8
21	Cc1ccc(S(=O)(=O)N2CCOCC2)cc1NC(=O)CSc1nnc(N)s1	-1.0	0.2	.	1
22	O=C(NCC12CC3CC(CC(C3)C1)C2)c1nn2c(c1Cl)NC(c1ccco1)CC2C(F)(F)F (stereo not given)	-1.2	0.4	2.4	3
23	O=C(/C=C/c1ccc([N+](=O)[O-])cc1)Oc1ccc(/C=N/NC(=O)c2ccncc2)cc1	7.2	.	-3.8	7
24	COc1ccc(N2CCN(C(=O)c3ccc(Br)o3)CC2)cc1	.	2.1	-2.7	10
25	Cn1c(C(=O)O)c(C=O)c2ccccc21	2.6	1.6	10	7
26	NNc1nccc(Nc2ccccc2C(=O)O)n1	-1.2	0.1	-4.5	-2
27	Cc1ccc(C(=O)/C=C/c2c[nH]c3ccccc23)cc1	54*	-6.5	6.9	9
28	Cn1c(SCC(=O)N2CCCC2)nnc1-c1cccs1	3.8	1.5	-17	-12
29	Cc1cc(C(=O)O)c2ccccc2n1	3.6	1.1	-1.4	7
30	CN(c1cccc(NC(=O)CN(c2cccc(Cl)c2)S(=O)(=O)c2ccc(Cl)cc2)c1)S(C)(=O)=O	-1.9	.	1.2	-1

entry	Calb FLC	A1 inh	T cruzi inh	Beta apoptosis
16	-7	-0.5	-9	-4
17	-41	0.1	-3	-4
18	-5	1.5	24	-8
19	-5	0.5	-4	-2
20	-5	0.3	11	-5
21	-7	0.5	-8	1
22	-9	-0.3	19	-5
23	3	0.4	55*	-3
24	.	0.3	0	-7
25	0	0.2	5	-5
26	10	-1.3	-4	-2
27	24	-1.3	4	6
28	-7	0.2	15	-1
29	3	-0.4	-8	-1
30	-5	0.3	23	.

# Compound profiles (already shown):
# Cc1cccc(NC(=O)CSCC(=O)N(C)CC(=O)Nc2cccc(F)c2)c1 is listed with RanGTP-Imp inh = -3.2; UCH37 inh = -1.0; LANA-H2A inh = -0.9; Beta2AR agonist = 13; Calb FLC = -7; A1 inh = -0.5; T cruzi inh = -9; Beta apoptosis = -4
# S=C(Nc1ccc(Cl)cc1)N1CCN(C2CCCCC2)CC1 is listed with RanGTP-Imp inh = 4.2; UCH37 inh = -0.5; LANA-H2A inh = 0.4; Beta2AR agonist = -3; Calb FLC = -41; A1 inh = 0.1; T cruzi inh = -3; Beta apoptosis = -4

# Carrying on:
entry	Structure	RanGTP-Imp inh	UCH37 inh	LANA-H2A inh	Beta2AR agonist
31	Cc1ccc(S(=O)(=O)NCc2ccc(C(=O)N3CCc4ccccc4C3)cc2)cc1	0.4	3.0	0.7	-8
32	Cn1cccc1CC(=O)N/N=C/c1ccc(C(C)(C)C)cc1	?	.	0.9	-2
33	Cc1ccccc1OCC(=O)Nc1cc(S(=O)(=O)N2CCCCC2)ccc1N1CCN(C)CC1	-2.5	3.7	6.5	6
34	CCN1CCN(Cc2ccc(NC(=O)c3cc(NC(=O)c4cncc(-c5cccs5)c4)cc(OC)c3)cc2C(F)(F)F)CC1	-0.2	.	-2.1	.
35	Cc1noc(C)c1CSc1nc2cc(S(=O)(=O)N3CCOCC3)ccc2o1	1.3	1.5	.	-1
36	COc1cc(C)ccc1OCCOCCOc1cc(C)c(C)cc1Br	3.4	7.2	7.9	-4
37	CCCN(C(=O)C1CSC2(C)CCC(=O)N12)c1c(N)n(Cc2ccccc2)c(=O)[nH]c1=O (stereo not given)	-2.8	1.7	5.0	18
38	COc1ccc(NC(=O)NNC(=O)C(C)Oc2ccc3ccccc3c2)cc1OC (stereo not given)	8.2	3.7	-3.1	0
39	O=C(N/N=C/c1ccc([N+](=O)[O-])cc1)c1cc(C2CC2)nc2ccccc12	2.6	.	-2.9	1
40	Cc1nc(Sc2ccc(Br)cc2)c(C#N)c(C)c1[N+](=O)[O-]	?	2.3	-0.4	4
41	CCOC(=O)N1CCN(C(=O)c2ccc3c(c2)N(Cc2ccccc2)CCS3)CC1	?	-55	2.8	-13
42	COc1cccc(CNCc2ccccn2)c1OC	6.8	0.5	13	0
43	CC(C(=O)NCCC1=CCCCC1)N1C(=O)c2ccccc2C1=O (stereo not given)	2.1	3.9	11	0
44	CCOC(=O)C1(Cc2cccc(F)c2)CCN(CCCn2cccn2)CC1	0.8	0.5	-2.9	5
45	CC(C)CCNC(=O)CN(Cc1ccc(F)cc1)C(=O)CCC(=O)Nc1ccccn1	-2.9	3.5	11	-3

entry	Calb FLC	A1 inh	T cruzi inh	Beta apoptosis
31	-5	0.3	19	10
32	-3	1.2	0	0
33	-37	0.1	58*	4
34	16	0.4	27	7
35	0	-0.4	4	-1
36	9	-0.1	15	-10
37	3	-0.3	-8	.
38	-9	-0.3	-2	-3
39	-4	0.4	-25	4
40	-7	-0.9	42	0
41	1	-0.1	21	9
42	0	1.2	-22	-6
43	-2	-0.7	2	3
44	5	-0.5	12	-6
45	11	0.2	-2	2

# Going on with the list:
entry	Structure	RanGTP-Imp inh	UCH37 inh	LANA-H2A inh	Beta2AR agonist
46	CC(c1ccccc1)n1cc(C(=O)NCCCn2ccnc2)nn1 (stereo not given)	?	3.2	-1.8	5
47	CCOc1ccccc1N(C)C(=O)CCS(=O)(=O)c1ccc2c(c1)NC(=O)C(C)S2 (stereo not given)	26	1.8	1.3	7
48	COc1ccccc1N1CCN(S(=O)(=O)CCNC(=O)Cc2ccc(F)cc2)CC1	-0.3	0.7	6.1	2
49	CN(C)CC(=O)N1c2ccccc2Sc2ccc(Cl)cc21	-0.4	2.5	1.2	-15
50	CC(C)C(C(=O)NCc1ccco1)N(C(=O)CNS(=O)(=O)c1ccc(Cl)cc1)C1CCCC1 (stereo not given)	-2.1	5.2	1.8	0
51	COc1cc(C)c(CN2CCC(n3nccc3NC(=O)C3CCOC3)CC2)cc1C (stereo not given)	3.7	3.3	-1.0	3
52	O=C(NCc1cccnc1)c1cccc(Cl)c1	-2.1	2.7	7.1	-4

entry	Calb FLC	A1 inh	T cruzi inh	Beta apoptosis
46	7	-0.1	-15	-1
47	2	-0.7	20	-3
48	3	0.4	2	0
49	-17	0.4	17	5
50	20	0.2	13	-8
51	3	0.5	12	-3
52	6	0.5	-1	-1

# Molecules shown so far with an aryl thioether with sulfur outside any ring (seven):
entry	Structure	RanGTP-Imp inh	UCH37 inh	LANA-H2A inh	Beta2AR agonist
2	COc1ccc(-n2c(SC(C)C(=O)N3CCOCC3)nc3ccccc3c2=O)cc1 (stereo not given)	-1.6	-0.6	4.2	5
13	O=C(CSc1ccccc1)N1CCC(N2CCC(C(=O)N3CCCC3)CC2)CC1	?	-2.0	-2.0	-1
20	CCn1c(SCC(=O)Nc2nncs2)nnc1-c1ccco1	4.0	4.0	2.8	-8
21	Cc1ccc(S(=O)(=O)N2CCOCC2)cc1NC(=O)CSc1nnc(N)s1	-1.0	0.2	.	1
28	Cn1c(SCC(=O)N2CCCC2)nnc1-c1cccs1	3.8	1.5	-17	-12
35	Cc1noc(C)c1CSc1nc2cc(S(=O)(=O)N3CCOCC3)ccc2o1	1.3	1.5	.	-1
40	Cc1nc(Sc2ccc(Br)cc2)c(C#N)c(C)c1[N+](=O)[O-]	?	2.3	-0.4	4

entry	Calb FLC	A1 inh	T cruzi inh	Beta apoptosis
2	-2	0.9	4	-4
13	-8	-0.1	11	-7
20	-5	0.3	11	-5
21	-7	0.5	-8	1
28	-7	0.2	15	-1
35	0	-0.4	4	-1
40	-7	-0.9	42	0
